MARV entry inh: Marburg virus entry inhibition; Marburg virus pseudotyped entry inhibition, cell reporter; control for the full effect not named in the record; about a third of the inactives were read at about 46 µM; AID 540276; Potency, µM (highest dose often 37.8 µM), inactives show at the top dose activity change, negative = inhibition, actives largely listed as inhibitors; actives 1.8% (n = 300,000); active = well fitted inhibition curve with a large enough effect; inconclusive = small, poorly fitted or top-dose-only effect, or effect the other way; inactive = flat fitted curve, though single readings scatter; tested in HEK293 cells; about a fifth of its hits are not listed in these tables; further: luciferase read-out
LASV entry inh: blocks Lassa virus binding to or entry into cells; Potency, µM (top dose mostly 37.9 µM), for inactives: at the highest dose activity change, negative = inhibition, usual class: inhibitors; Lassa virus pseudotype entry inhibition, cell reporter; control for the full effect not named in the record; actives 1.2% (n = 300,000); active means well fitted inhibition curve with a large enough effect; inconclusive means small, poorly fitted or top-dose-only effect, or effect the other way; inactive means flat fitted curve, though single readings scatter; tested in HEK293 cells; further: nearly all actives have a fitted effect of over 50% in size; luciferase read-out
An asterisk follows results filed as active; u = inconclusive; x = no result given; & = joins results of further samples; [ ] = dose if it differs, or a comment. On the % scale 0 is the no-effect control and ±100 the full control effect; potency means the concentration at half of the fitted maximal effect. A portion of the library; count on the stated rates, not on these rows.

Molecule: COC(=O)[C@H]1O[C@@H](c2cc(OC)c(C)c(OC)c2O)[C@H](C)[C@@H](O)[C@@H]1C
  MARV entry inh = u
  LASV entry inh = u
Molecule: COCCN1C(=O)C2=C(C1=O)C1N(C)c3ccccc3[C@@]13C[C@@H](CO)N(C(=O)c1ccc(Br)cc1)C3=N2 (stereo partly drawn)
  MARV entry inh = -7.4%[14.2 µM]
  LASV entry inh = u
Molecule: CC(C)C(=O)N[C@H]1CCCN1C(=O)C=Cc1ccccc1
  MARV entry inh = -22.4%[14.2 µM]
  LASV entry inh = u
Molecule: CCCNC(=O)OC[C@H]1O[C@H](CCON=CC[C@@H]2C=C[C@H](OC(C)=O)[C@@H](COC(C)=O)O2)C=C[C@H]1Oc1ccc(OC)cc1
  MARV entry inh = 6.1%[14.2 µM]
  LASV entry inh = 7.5%[14.3 µM]
Molecule: C=C(C)C(O)C=CC=Cc1ccccc1 (stereo not drawn)
  MARV entry inh = 1.9%[14.2 µM]
  LASV entry inh = u
Molecule: COC(=O)C1=C(C)N(Cc2ccccc2)C(=NCc2ccc3c(c2)OCO3)NC1CCc1ccccc1 (stereo not drawn)
  MARV entry inh = -11.9%[14.2 µM]
  LASV entry inh = u
Molecule: C[C@@H]1C=CCC(=O)N2[C@H](CC(=O)N[C@@H]1c1ccccc1)C[C@@H](C)[C@@H]2c1ccccc1
  MARV entry inh = -24.0%[14.2 µM]
  LASV entry inh = u
Molecule: C#CC1(O)C(OC)=CC2C(=O)C1C(c1ccccc1)C2C (stereo not drawn)
  MARV entry inh = -3.5%[14.2 µM]
  LASV entry inh = u
Molecule: C=CCN(C1=NCCN1)c1c(Cl)cccc1Cl
  MARV entry inh = 10.5%&10.5%&10.5%
  LASV entry inh = 2.2%
Molecule: CCOC(=O)[C@@]12[C@@H]3[C@@H](CCN3C(=O)N[C@H]1c1ccccc1)C2(C)C
  MARV entry inh = u
  LASV entry inh = u
Molecule: C=CCC12C=C(OC)C(=O)C(C1=O)C(c1ccc(OC)cc1)C2C (stereo not drawn)
  MARV entry inh = 0.3%[14.2 µM]
  LASV entry inh = x
Molecule: COC(=O)CC=C[C@@H](C)[C@H](OC)c1c(Br)ccc2c1OCO2
  MARV entry inh = u
  LASV entry inh = u
Molecule: CCN1C(=NCCCOC(C)C)N[C@H](c2ccccc2)[C@H](C(=O)OC)[C@H]1C
  MARV entry inh = 0.1%[14.2 µM]
  LASV entry inh = u
Molecule: COC(=O)[C@@H]1CC[C@H](C)[C@@H](c2ccc(C)cc2)N1C(=O)c1ccc(C=NOC[C@@H](O)COCc2ccco2)cc1
  MARV entry inh = u
  LASV entry inh = 15.4%[14.3 µM]
Molecule: COC(=O)CC=C1c2ccc(F)cc2[C@@H](OC)[C@@H]1C
  MARV entry inh = -11.0%[14.2 µM]
  LASV entry inh = u

Molecule: Nc1ncnc2c1nc(Sc1ccc(Cl)cc1)n2[C@H]1OC2COP(=O)(O)O[C@@H]2C1O (stereo partly drawn)
  MARV entry inh = 7.6%
  LASV entry inh = 13.8%
Molecule: CCN1C(=O)[C@@H]2[C@H]3[C@H](O)[C@H](O)CC(=NOC[C@@H](C)[C@H](OCc4ccccc4)C(C)C)[C@@H]3CC[C@H]2C1=O
  MARV entry inh = 1.2%[14.2 µM]
  LASV entry inh = 13.1%[14.3 µM]
Molecule: COC(=O)C1=C(C)N(Cc2ccccc2)C(=NCCc2ccc([N+](=O)[O-])cc2)NC1c1cccc(F)c1 (stereo not drawn)
  MARV entry inh = 9.2%[14.2 µM]
  LASV entry inh = u
Molecule: COC(=O)C1C[C@@]23C(=NN=C(SC)C2N(C)c2ccc(OC)cc23)N1C(C)=O (stereo partly drawn)
  MARV entry inh = -33.2%[14.2 µM]
  LASV entry inh = u
Molecule: COc1ccc(O[C@H]2C=C[C@@H](c3ccccc3)O[C@H]2COC(=O)CCC(C)=NOCC[C@@H]2C=C[C@H](OC(C)=O)[C@@H](COC(C)=O)O2)cc1
  MARV entry inh = u
  LASV entry inh = u
Molecule: N#Cc1ccc2c(c1)C[C@]1(c3ccsc3)Oc3c(c(=O)oc4ccc(F)cc34)[C@@H]2O1
  MARV entry inh = 1.5%[14.2 µM]
  LASV entry inh = u
Molecule: C=CCOC(=O)N[C@H](c1ccc2ccccc2c1)[C@H](C)C=CCC(=O)OC
  MARV entry inh = -4.3%[14.2 µM]
  LASV entry inh = u
Molecule: COC1(C#C[C@@H]2C=C[C@H](OC(C)=O)[C@@H](COC(C)=O)O2)CCCCC1
  MARV entry inh = -17.9%&-17.9%[14.2 µM]
  LASV entry inh = u
Molecule: O=C1OC2(CCCCC2)CC2=C1[C@H]1O[C@](c3ccsc3)(Cc3c1ccc1ccccc31)O2
  MARV entry inh = 2.2%[14.2 µM]
  LASV entry inh = u
Molecule: CCOC(=O)C1=CN(CCC=C(C)C)C(=O)NC1c1ccccc1 (stereo not drawn)
  MARV entry inh = 7.1%[14.2 µM]
  LASV entry inh = u
Molecule: O=C(NN=C1C[C@@H](O)[C@H](O)[C@H]2[C@@H]3C(=O)N(Cc4ccc5c(c4)OCO5)C(=O)[C@@H]3CC[C@H]12)OCc1ccccc1
  MARV entry inh = -2.2%[14.2 µM]
  LASV entry inh = u
Molecule: CCN1C[C@@]2(COC)C3[C@@H](OC)C4[C@@H]1C3([C@@H]1C[C@]3(O)[C@H](OC(=O)c5ccccc5)[C@@H]1[C@]4(OC(C)=O)[C@@H](O)[C@@H]3OC)[C@H](OC)C[C@H]2O
  MARV entry inh = 1.1%
  LASV entry inh = u
Molecule: CCCCc1cc2c(cn1)C(=O)C(C)(OC(C)=O)C(=O)C2 (stereo not drawn)
  MARV entry inh = u
  LASV entry inh = u
Molecule: CCCCCCCc1cc2ccccc2c2c(C(C)=O)c(-c3ccccc3)c(C(=O)OC)n12
  MARV entry inh = -16.1%[14.2 µM]
  LASV entry inh = u
Molecule: N=C(N)c1ccc(CS(=O)(=O)F)cc1
  MARV entry inh = -11.4%
  LASV entry inh = 3.2%

Seven compounds drawn at random from those above:
Molecule: CCCCCCCc1cc2ccccc2c2c(C(C)=O)c(-c3ccccc3)c(C(=O)OC)n12
  MARV entry inh = -16.1%[14.2 µM]
  LASV entry inh = u
Molecule: COC1(C#C[C@@H]2C=C[C@H](OC(C)=O)[C@@H](COC(C)=O)O2)CCCCC1
  MARV entry inh = -17.9%&-17.9%[14.2 µM]
  LASV entry inh = u
Molecule: N=C(N)c1ccc(CS(=O)(=O)F)cc1
  MARV entry inh = -11.4%
  LASV entry inh = 3.2%
Molecule: CCCCc1cc2c(cn1)C(=O)C(C)(OC(C)=O)C(=O)C2 (stereo not drawn)
  MARV entry inh = u
  LASV entry inh = u
Molecule: O=C1OC2(CCCCC2)CC2=C1[C@H]1O[C@](c3ccsc3)(Cc3c1ccc1ccccc31)O2
  MARV entry inh = 2.2%[14.2 µM]
  LASV entry inh = u
Molecule: C=CCOC(=O)N[C@H](c1ccc2ccccc2c1)[C@H](C)C=CCC(=O)OC
  MARV entry inh = -4.3%[14.2 µM]
  LASV entry inh = u
Molecule: N#Cc1ccc2c(c1)C[C@]1(c3ccsc3)Oc3c(c(=O)oc4ccc(F)cc34)[C@@H]2O1
  MARV entry inh = 1.5%[14.2 µM]
  LASV entry inh = u

Other compounds follow.
Molecule: COC(=O)CC=C[C@@H](C)[C@@H](C=NO[C@@H](C)c1cn([C@H](CO)Cc2ccccc2)nn1)NS(=O)(=O)c1ccc(C)cc1
  MARV entry inh = -12.7%[14.2 µM]
  LASV entry inh = 12.8%[14.3 µM]
Molecule: COC(=O)[C@]1(C)C=C[C@@H](C)[C@H](c2ccccc2Br)N1C(=O)C(F)(F)F
  MARV entry inh = x
  LASV entry inh = u
Molecule: O=C1[C@H]2[C@@H]3[C@@H](O)[C@H](O)CC(=NOCc4ccccc4)[C@@H]3CC[C@H]2C(=O)N1Cc1ccc2c(c1)OCO2
  MARV entry inh = -17.5%&-17.5%[14.2 µM]
  LASV entry inh = u
Molecule: CC(C)CON=C1C[C@@H](O)[C@@H](O)[C@@H]2[C@H]3C(=O)N(C4CCCCC4)C(=O)[C@@H]3CC[C@@H]12
  MARV entry inh = -20.1%[14.2 µM]
  LASV entry inh = -25.6%[14.3 µM]
Molecule: C=C(C)C(O)C=Cc1ccc(Br)cc1 (stereo not drawn)
  MARV entry inh = u
  LASV entry inh = u
Molecule: COc1ccc(COC(=O)NN=C2C[C@@H](O)[C@@H](O)[C@@H]3[C@H]4C(=O)N(Cc5ccc6c(c5)OCO6)C(=O)[C@@H]4CC[C@H]23)cc1
  MARV entry inh = 4.1%[14.2 µM]
  LASV entry inh = 0.266µM*
Molecule: CCN1C(=O)NC(c2ccc(Br)cc2)C(C(C)=O)=C1C (stereo not drawn)
  MARV entry inh = u
  LASV entry inh = u
Molecule: COC(=O)C1=C(C(=O)OC)[C@@H]2N(C)c3ccc(OC)cc3[C@@]23C[C@@H](C(=O)OC)N(C(=O)NC(C)(C)C)C3=N1
  MARV entry inh = u
  LASV entry inh = u
Molecule: COc1ccc(O[C@H]2C=C[C@@H](c3ccccc3)O[C@H]2COC(=O)CCC(C)=NOC[C@@H](O)COCc2ccco2)cc1
  MARV entry inh = 9.9%[14.2 µM]
  LASV entry inh = 0.0%[14.3 µM]
Molecule: COC(=O)CC=C1c2ccccc2[C@@H](OC)[C@@H]1C
  MARV entry inh = 16.2%&3.2%[14.2 µM]
  LASV entry inh = u
Molecule: NC(=O)C1=CN(C2OC(COP(=O)(O)OP(=O)(O)OC[C@H]3O[C@@H](n4cnc5c(N)ncnc54)[C@H](OP(=O)(O)O)[C@@H]3O)C(O)C2O)C=CC1 (stereo partly drawn)
  MARV entry inh = u
  LASV entry inh = u
Molecule: CC(=O)OCC1=C(C(=O)O)N2C(=O)[C@@H](NC(=O)CCC[C@@H](N)C(=O)O)[C@H]2SC1
  MARV entry inh = -7.4%
  LASV entry inh = 0.2%
Molecule: O=C1C(I)=CC(=C(c2cc(I)c(O)c(I)c2)c2ccccc2C(=O)O)C=C1I
  MARV entry inh = u
  LASV entry inh = u
Molecule: N#C/C(=C/c1ccc(O)c(O)c1)C(N)=S
  MARV entry inh = 22.9%
  LASV entry inh = -19.0%
Molecule: CCN1C(=O)[C@@H]2[C@H]3[C@H](O)[C@H](O)CC(=NO[C@H](C)c4cn([C@H](CO)Cc5ccccc5)nn4)[C@@H]3CC[C@H]2C1=O
  MARV entry inh = -10.9%[14.2 µM]
  LASV entry inh = 25.3%[14.3 µM]

Molecule: CCCCCN(C)CCC(O)(P(=O)(O)O)P(=O)(O)O
  MARV entry inh = -10.6%&-10.6%
  LASV entry inh = 10.3%
Molecule: CCN1C(=O)[C@@H]2[C@H]3[C@H](O)[C@H](O)CC(=NO[C@@H](C)c4cn([C@H](CO)Cc5ccccc5)nn4)[C@@H]3CC[C@H]2C1=O
  MARV entry inh = -3.3%[14.2 µM]
  LASV entry inh = u
Molecule: CCCCn1c(C)cc2c(c1=O)[C@H]1O[C@](CCCC)(Cc3cc(C#N)ccc31)O2
  MARV entry inh = -17.9%[14.2 µM]
  LASV entry inh = u
Molecule: CCCNC(=O)N1C2=NC(C(=O)OC)=C(C(=O)OC)[C@@H]3Nc4ccccc4[C@]23C[C@H]1C(=O)OC
  MARV entry inh = 3.2%[14.2 µM]
  LASV entry inh = u
Molecule: COc1ccc(COC(=O)NN=C2C[C@@H](O)[C@@H](O)[C@@H]3[C@H]4C(=O)N(C[C@@H]5CCCO5)C(=O)[C@@H]4CC[C@H]23)cc1
  MARV entry inh = u
  LASV entry inh = u
Molecule: CC1=CC[C@@H](C)O[C@@]2(C1)C(=O)N(Cc1ccc(Br)cc1)c1ccccc12
  MARV entry inh = 14.4%[14.2 µM]
  LASV entry inh = u
Molecule: C[C@@H]1CC[C@H]2C(=O)N(Cc3ccccc3)C[C@@H](O)CN2[C@@H]1c1cccc(Br)c1
  MARV entry inh = -22.0%[14.2 µM]
  LASV entry inh = 7.1%[14.3 µM]
Molecule: O=C(O)CC1CC(c2ccccc2)=NO1 (stereo not drawn)
  MARV entry inh = 21.0%
  LASV entry inh = u
Molecule: COc1ccc(O[C@H]2C=C[C@@H](c3ccccc3)O[C@H]2COC(=O)CCC(C)=NO[C@H](C)c2cn([C@H](CO)Cc3ccccc3)nn2)cc1
  MARV entry inh = -8.6%[14.2 µM]
  LASV entry inh = u
Molecule: CCOC(=O)CN1C(=O)NC(c2ccc(Br)cc2)C(C(C)=O)=C1C (stereo not drawn)
  MARV entry inh = u
  LASV entry inh = u
Molecule: O=C1[C@H]2[C@@H]3[C@@H](O)[C@H](O)CC(=NOCc4ccccc4)[C@@H]3CC[C@H]2C(=O)N1C1CCCCC1
  MARV entry inh = -13.6%[14.2 µM]
  LASV entry inh = -8.1%[14.3 µM]

Screening data (PubChem BioAssay)
